# Assay outcomes deposited in PubChem BioAssay by National Center for Advancing Translational Sciences (NCATS).
# LT uptake inh: anthrax lethal toxin internalization inhibition; AID 912; Cells, anthrax lethal toxin internalization, FRET ratio (460/530); 70,000 tested, 0.67% active; Potency, µM (top dose mostly 40 µM), inactives show at the top dose activity change, negative = inhibition, usual class: inhibitors; active = well fitted falling ratio curve with the 530 nm signal flat; inconclusive = other ratio curves, or a change in one channel alone; inactive = flat curves in the ratio and both channels; the % refers to the ratio; further: on the % scale 0 is the no-effect control and ±100 the full control effect; nearly all actives have a fitted effect of over 50% in size; tested in ME-180 cells; beta-lactamase reporter
# SmPrx2 inh: inhibitors of Schistosoma mansoni peroxiredoxin 2; S. mansoni Prx2 activity coupled to TGR/GSH (TGR is thioredoxin glutathione reductase), NADPH fluorescence loss, qHTS; some inactives read as strong as hits; Potency, µM; 65,000 tested, 0.07% active; AID 448; active means full or partial inhibition curve with a strong effect at the top dose; inconclusive means weaker partial or single-point curve; inactive means no accepted curve; further: series up to 57 µM; many of its hits are not listed in these tables
#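 Coupled assay in which S. mansoni TGR passes NADPH reducing equivalents via glutathione to Prx2, which reduces H2O2. Compounds were preincubated 15 min at room temperature with 25 nM TGR/50 nM Prx2 mix. Kinetic NADPH fluorescence loss (ex 365/em 450 nm) was monitored.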
# * marks the source's active call; other numbers are inactive results; ? = inconclusive; · = no result given; & = joins results of further samples; [ ] = another dose, or the depositor's remark. Potency means the concentration at half of the fitted maximal effect. An excerpt, so the mix of outcomes need not match the whole.
1) CCOC(=O)C1CCN(Cc2cn[nH]c2-c2ccccc2)CC1
2) O=C(O)CSc1nnc(-c2ccncc2)n1C1CCCCC1
3) CCOCCCN1CC(C(=O)NCCc2ccccc2)CC1=O (configuration not stated)
4) O=C1CC(Sc2nnc(-c3ccccc3)o2)C(=O)N1c1ccccc1 (configuration not stated)
5) CCc1nnc(NC(=O)CN2C(=O)c3ccccc3S2(=O)=O)s1
6) CNc1ccc2oc(C[C@H]3O[C@]4(CC[C@H]3C)O[C@H]([C@H](C)C(=O)c3ccc[nH]3)[C@H](C)C[C@H]4C)nc2c1C(=O)O
7) CCOC(=O)C1CCCN(C(=O)C2CCN(S(=O)(=O)c3cnc[nH]3)CC2)C1 (configuration not stated)
8) CCSc1cc(C2C(C(=O)OC)=C(C)NC3=C2C(=O)CCC3)c(C)o1 (configuration not stated)

Compound,1,2,3,4,5,6,7,8
SmPrx2 inh,>57,>57,>57,>57,>57,>57,>57,>57
LT uptake inh,-11%,-7%,20%,?,-2%,?,10%,8%

# Shown as tab-separated lines: part of the list above.
no.	Molecule	SmPrx2 inh	LT uptake inh
4	O=C1CC(Sc2nnc(-c3ccccc3)o2)C(=O)N1c1ccccc1 (configuration not stated)	>57	?
7	CCOC(=O)C1CCCN(C(=O)C2CCN(S(=O)(=O)c3cnc[nH]3)CC2)C1 (configuration not stated)	>57	10%
2	O=C(O)CSc1nnc(-c2ccncc2)n1C1CCCCC1	>57	-7%
1	CCOC(=O)C1CCN(Cc2cn[nH]c2-c2ccccc2)CC1	>57	-11%
3	CCOCCCN1CC(C(=O)NCCc2ccccc2)CC1=O (configuration not stated)	>57	20%

# (more compounds)
9) O=c1ccc2cc3ccoc3cc2o1
10) COc1cc(S(=O)(=O)N2CCN(c3ccccc3)CC2)ccc1Cl
11) CCCOc1ccc2ccccc2c1/C=N/n1cnnc1
12) Cc1ccccc1NC(=O)c1c(O)c2cccc3c2n(c1=O)CCC3
13) Cc1cc(NC(=O)Cn2c(=O)n(Cc3ccccc3)c(=O)c3ccccc32)no1
14) COc1ccc(Br)cc1CNC(=O)CCc1nc(-c2ccccc2F)no1
15) O=C(CCCCCN1C(=O)CCC1=O)Nc1ccc2c(c1)OCCO2
16) COc1ccc(-c2nnc3sc(-c4cccs4)nn23)cc1OC

Compound,9,10,11,12,13,14,15,16
SmPrx2 inh,>57,·,>57,>57,>57,>57,>57,>57
LT uptake inh,?,?,3%,8%,-7%,20%,·,?

# Entries 13 through 14 from above:
13) Cc1cc(NC(=O)Cn2c(=O)n(Cc3ccccc3)c(=O)c3ccccc32)no1
14) COc1ccc(Br)cc1CNC(=O)CCc1nc(-c2ccccc2F)no1

Compound,13,14
SmPrx2 inh,>57,>57
LT uptake inh,-7%,20%

# Further entries.
17) COC(=O)c1ccccc1NS(=O)(=O)c1ccc(F)cc1
18) Cc1cnc(CNc2ncnc3ccc(-c4ccc(C(=O)N(C)C)cc4)cc23)cn1
19) Cc1ccc(S(=O)(=O)NC(=O)COc2ccccc2C(N)=O)cc1
20) COc1ccc(-n2c(=O)c(-c3ccccc3)nc3cnc(N4CCOCC4)nc32)cc1
21) Cc1ccccc1-c1nc(N(C)C)c2ccccc2n1
22) Cc1ccc(NC(=O)C2CCCN(S(=O)(=O)c3c(C)noc3C)C2)nc1 (configuration not stated)
23) Cc1cccc(C)c1N(CC(=O)Nc1cccc(N(C)S(C)(=O)=O)c1)S(C)(=O)=O
24) O=C(O)c1ccc(-n2c(-c3ccccc3)n[nH]c2=S)cc1

Compound,17,18,19,20,21,22,23,24
SmPrx2 inh,>57,>57,>57,>57,>57,>57,>57,>57
LT uptake inh,-10%,9%,?,?,-10%,-3%,-14%,7%

25) CCCC(c1nnnn1C1CCCC1)N1CCN(c2ccccc2F)CC1 (configuration not stated)
26) COc1ccc(C2(C(=O)NCCCN(C)C)CCOCC2)cc1
27) CCOC(=O)c1cc(NC(=O)c2cccnc2)cc(C(=O)OCC)c1
28) COc1ccc(C(=O)NCC(C)CN(C)C)cc1 (configuration not stated)
29) CCn1c(C)nc2cc(S(=O)(=O)N3CCCC3)ccc21
30) O=C(CN(c1ccccc1F)S(=O)(=O)c1ccccc1)N1CCCCCC1
31) O=C(c1ccc(F)cc1)C1CCN(C(=O)NCc2ccccc2)CC1
32) CC(=O)NCCNc1ccnc(-c2ccccc2C)n1

Compound,25,26,27,28,29,30,31,32
SmPrx2 inh,>57,>57,>57,>57,·,·,>57,>57
LT uptake inh,-12%,2%,8%,1%,14%,-16%,-12%,3%

33) CC(C)C(=O)Nc1nnc(SCC(=O)NCc2cccs2)s1
34) CCc1ccc(C(=O)CSc2ncn[nH]2)cc1
35) O=C(Nc1cccc(NC(=O)N2CCN(c3ccccc3)CC2)c1)N1CCN(c2ccccc2)CC1
36) CC(C)N1C(=O)CCC1C(=O)NCc1ccccc1Cl (configuration not stated)
37) CCOC(=O)N1CCC(C(=O)Nc2ccc(OCC)cc2)CC1
38) O=C(c1cn(-c2ccccc2)nc1-c1cccs1)N1CCN(c2ccccn2)CC1
39) Cc1cc2c(c(N3CCOCC3)n1)C(=O)OC2
40) Cc1ccc(-c2nc(-c3cccnc3)no2)cc1

Compound,33,34,35,36,37,38,39,40
SmPrx2 inh,>57,>57,>57,>57,>57,>57,>57,>57
LT uptake inh,?,-14%,?,-3%,1%,?,-8%,-8%

41) CCOc1ccc2nc(SCC(=O)c3cccs3)sc2c1
42) Nc1cc(S(=O)(=O)C(F)(F)F)ccc1C(=O)O
43) O=C(c1cccc(F)c1)N1CCC2(CC1)CN(c1ccccn1)C2
44) CCc1nnc2sc(-c3ccc(NC(=O)CSc4ccc(Cl)cc4)cc3)nn12
45) CC1CCCC(C)N1CCCNC(=O)Cn1cc2c(n1)CCCC2 (configuration not stated)
46) CC(=O)NCCNc1nc(-c2c(C)noc2C)nc2ccccc12
47) COc1ccc2[nH]cc(C(=O)N3CCCCC3)c(=O)c2c1
48) CSc1n[nH]c(NCc2ccccc2)n1

Compound,41,42,43,44,45,46,47,48
SmPrx2 inh,>57,>57,>57,>57,>57,>57,>57,>57
LT uptake inh,-17%,-12%,11%,9%,-2%,15%,-7%,1%

49) C[C@@]1(C(NC(=O)c2cccs2)c2ccc(-c3ccccc3)cc2)C[C@H]1C1CCCCC1 (some centres not stated)
50) Cc1nc2ccccn2c1C(=O)NCCCN1CCOCC1
51) COc1ccc(NC(=O)CN(C)S(=O)(=O)c2ccc3c(c2)OCCO3)c2ncccc12
52) CCCc1nc(N)c(C#N)c(-c2cccnc2)c1CC
53) O=C(Nc1ccc(S(=O)(=O)N2CCCCC2)cc1)c1ccncc1
54) C/C=C/CSc1nc2c(c(=O)[nH]c(=O)n2C)n1C(C)C
55) COC(=O)C1=CO[C@@H](C)[C@H]2CN3CCc4c([nH]c5ccccc45)[C@@H]3C[C@H]12
56) Cn1c(=O)c(NC(=O)c2ccccc2)c2n(c1=S)CCCCC2

Compound,49,50,51,52,53,54,55,56
SmPrx2 inh,>57,>57,>57,>57,>57,>57,>57&>57,>57
LT uptake inh,-20%,3%,-2%,5%,2%,-1%,?,-17%

57) CSc1ccc(C(=O)c2[nH]c(=O)[nH]c2C)cc1
58) CC1(C)CC(=O)C2=C(C1)OC(=O)C2(NC(=O)c1cccs1)C(F)(F)F (configuration not stated)
59) Cc1ccc2cccc(S(=O)(=O)Nc3ccc4c(c3)OCO4)c2n1
60) CN(CC(=O)Nc1ccc(C#N)cc1)Cc1ccc(Cl)cc1
61) CCc1ccccc1NC(=O)c1nnn(CC(=O)Nc2cccc(C)c2C)c1N
62) Cc1cc(NC(=O)COC(=O)c2cccc(S(=O)(=O)N3CCOCC3)c2)no1
63) CN(C)Cc1ccccc1-c1nc(N2CCOCC2)c2ccccc2n1
64) Cn1c(=O)n(CC(=O)NCc2cccnc2)c2ccccc21

Compound,57,58,59,60,61,62,63,64
SmPrx2 inh,>57,>57,>57,>57,>57,>57,>57,>57
LT uptake inh,-11%,-4%,·,-13%,-10%,?,-6%,?

65) C[C@H]1COC(=O)[C@H]2CCCN2C(=O)[C@@H](C)COC(=O)[C@H](Cc2ccccc2)NC1=O
66) COc1ccc(C(=O)NC(=O)N2CCCCC2)cc1
67) Cc1cc(C)c2cc(CN(CCO)Cc3nnnn3Cc3ccc(F)cc3)c(=O)[nH]c2c1
68) Cn1c(=O)c2c(nc(SCC(=O)NCc3ccco3)n2C)n(C)c1=O
69) O=C(O)c1cccc(NS(=O)(=O)c2ccc3nnn(O)c3c2)c1
70) CC(C)(C)c1ccc(-c2nc(C#N)c(NCc3ccncc3)o2)cc1
71) Cc1ccccc1NC(=O)c1ccccc1O
72) CCCCc1ccc(NC(=O)N[C@H](C(=O)O)C(C)C)cc1

Compound,65,66,67,68,69,70,71,72
SmPrx2 inh,·,>57,>57,>57,>57,>57,>57,>57
LT uptake inh,8%[8 µM],-11%,-25%,1%,-5%,-15%,?,?

# Reformatted with each value named: 2 of the compounds above.
[69] O=C(O)c1cccc(NS(=O)(=O)c2ccc3nnn(O)c3c2)c1
  SmPrx2 inh = >57	LT uptake inh = -5%

[70] CC(C)(C)c1ccc(-c2nc(C#N)c(NCc3ccncc3)o2)cc1
  SmPrx2 inh = >57	LT uptake inh = -15%

# The list continues:
73) CCOC(=O)Nc1sc(C(=O)N(CC)CC)c(C)c1C(=O)OCC
74) Cc1ccc2c(c1)nnn2C1CCN(S(=O)(=O)c2cccc(S(=O)(=O)N(C)C)c2)CC1
75) Cn1c(=O)n(CCOc2ccccc2Cl)c2ccccc21
76) O=C(c1cc2n(n1)C(C(F)(F)F)CC(c1ccco1)N2)N1CCc2ccccc2C1 (configuration not stated)
77) CCN1CCCC1CNC(=O)Cn1cc2c(n1)CCC(C)C2 (configuration not stated)
78) O=C(NCCSc1c[nH]c2ccccc12)c1ccco1
79) CSCCC(NC(N)=O)C(=O)NCc1ccccc1Cl (configuration not stated)
80) CC(=O)N1CSCC1C(=O)N1CCN(c2ccc(N3CCOCC3)nn2)CC1 (configuration not stated)

Compound,73,74,75,76,77,78,79,80
SmPrx2 inh,>57,>57,>57,>57,>57,>57,>57,·
LT uptake inh,-15%,-14%,-21%,-9%,-5%,-13%,-7%,4%

81) C[N+](C)(C)CCOC(=O)CBr
82) CC(CNS(=O)(=O)c1cc(Cl)ccc1Cl)CN(C)C (configuration not stated)
83) Cc1ccccc1Cn1nc(C)c(NC(=O)c2nc3n(n2)C(C(F)F)CC(C)N3)c1C (configuration not stated)
84) COCCn1nnnc1SCC(=O)c1ccc(F)cc1
85) Cc1occc1-c1nnc(SCC(=O)N2CCc3ccccc32)o1
86) COc1ccc(CCN(C)CCCN2CCc3cc(OC)c(OC)cc3CC2=O)cc1OC
87) Nc1ccnn1C1CCNCC1
88) CC1CC(C)CN(CCCNC(=O)c2cn(C)c3ccc(S(=O)(=O)N4CCCC4)cc3c2=O)C1 (configuration not stated)

Compound,81,82,83,84,85,86,87,88
SmPrx2 inh,>57,>57,>57,>57,?,·,>57,>57
LT uptake inh,-4%,-1%,-5%,-6%,2%,-1%,-11%,0%

89) COc1cccc(-n2c(=O)[nH]cc(C(=O)Nc3ccc(NC(C)=O)cc3)c2=O)c1
90) COc1ccc(S(=O)(=O)N2CCCC(C(=O)Nc3cccnc3)C2)cc1Cl (configuration not stated)
91) CCOC(=O)C1=C(C)NC(=O)NC1c1ccc(OC)c(Cl)c1 (configuration not stated)
92) COc1cc(OC)c(OC)cc1C=O
93) CN=C(Nc1ccc2c(c1)OCO2)SC1CC(=O)N(c2ccccc2)C1=O (configuration not stated)
94) CCCCN(CCCNC(=O)C1CCN(S(=O)(=O)N2CCOCC2)CC1)Cc1ccccc1
95) Cc1c(N=C=O)cccc1N=C=O
96) CC(CN1CCCCC1)OC(=O)Cc1ccc(Cl)cc1 (configuration not stated)

Compound,89,90,91,92,93,94,95,96
SmPrx2 inh,>57,>57,>57,·,>57,>57,·,>57
LT uptake inh,1%,-10%,5%,-10%,4%,11%,-8%,3%

97) COCCn1c(=O)c(-c2ccccc2)nc2cnc(N3CCN(C)CC3)nc21
98) CN(C(=O)c1cccc(C#N)c1)c1nnc(-c2cnccn2)s1
99) Cc1n[nH]c(C)c1S(=O)(=O)N1CCN(C2CCCCC2)CC1
100) O=C1CCCC2=C1C(O)(C(F)(F)F)C(=O)N2Cc1ccccc1 (configuration not stated)

Compound,97,98,99,100
SmPrx2 inh,>57,>57,>57,>57
LT uptake inh,?,-12%,4%,-6%
